Lassa entry inh: blocks Lassa virus binding to or entry into cells; Lassa virus pseudotype entry inhibition, cell reporter; control for the full effect not named in the record; Potency, µM (highest dose often 37.9 µM), for inactives: at the highest dose activity change, negative = inhibition, usual class: inhibitors; 300,000 compounds, 1.2% hits; active means well fitted inhibition curve with a large enough effect; inconclusive means small, poorly fitted or top-dose-only effect, or effect the other way; inactive means flat fitted curve, though single readings scatter; tested in HEK293 cells; note: % is set by controls: 0 for no effect and ±100 for the full control effect; nearly all actives have a fitted effect of over 50% in size; luciferase read-out
Cruzain noTriton: inhibitors of Trypanosoma cruzi cruzain without detergent; AID 1476; P25779; 200,000 compounds, 2.3% hits; Potency, µM, for inactives: max response, negative = inhibition, actives largely listed as inhibitors; purified cruzain, Z-FR-AMC fluorescence, no detergent;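 note: plate controls were enzyme without inhibitor for no effect and buffer without enzyme for full effect; nearly all actives have a fitted effect of over 40% in size; top concentration of the series not given in the record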
Target sequence (P25779 123-467 limits assumed): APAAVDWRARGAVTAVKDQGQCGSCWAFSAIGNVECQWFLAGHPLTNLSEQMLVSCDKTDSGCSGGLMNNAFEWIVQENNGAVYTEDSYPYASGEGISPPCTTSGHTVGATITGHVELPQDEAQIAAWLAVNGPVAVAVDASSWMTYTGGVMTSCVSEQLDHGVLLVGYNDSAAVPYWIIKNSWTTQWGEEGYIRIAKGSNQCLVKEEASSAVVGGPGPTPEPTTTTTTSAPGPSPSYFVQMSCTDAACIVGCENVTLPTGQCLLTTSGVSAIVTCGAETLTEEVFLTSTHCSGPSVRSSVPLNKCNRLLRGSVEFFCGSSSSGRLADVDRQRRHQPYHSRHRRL
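Detergent-free condition (0.00005% Triton X-100) in acetate buffer pH 5.5 with DTT. 1.5 nM enzyme and compound were pre-mixed 15 min, then 2 uM Z-FR-AMC substrate added; reaction progress from fluorescence change between first and third reads (60 s).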
SARS PLP yeast: SARS-CoV PLP inhibition in yeast; 330,000 compounds, 0.19% hits; Potency, µM (titrated, usually from 32.9 µM), inactives show at the highest dose activity, positive = growth rescue; S. cerevisiae expressing SARS-CoV PLpro, growth rescue; control for the full effect not named in the record; active means well fitted rising curve with a large enough effect; inconclusive means small, poorly fitted or top-dose-only effect; inactive means no such curve, though single readings can be large or run the other way; note: 0% is about no effect; nearly all actives have a fitted effect of over 55% in size; growth read by luminescence after 48 h
MARV entry inh: blocks Marburg virus binding to or entry into cells; AID 540276; Potency, µM (titrated, usually from 37.8 µM), for the others: at the highest dose activity change, negative = inhibition, most hits filed as inhibitors; Marburg virus pseudotyped entry inhibition, cell reporter; control for the full effect not named in the record; about a third of the inactives were read at about 46 µM; 300,000 compounds, 1.8% hits; active = well fitted inhibition curve with a large enough effect; inconclusive = small, poorly fitted or top-dose-only effect, or effect the other way; inactive = flat fitted curve, though single readings scatter; tested in HEK293 cells; about a fifth of its hits are not listed in these tables; note: % is set by controls: 0 for no effect and ±100 for the full control effect; luciferase read-out
StopGo reporter: lowers the luciferase signal of an FMDV 2A StopGo reporter; Potency, µM (series often up to 57.9 µM), for inactives: top-dose signal change, negative = less light; human cells with a luciferase reporter of 2A StopGo recoding; control for the full effect not named in the record; AID 1159524; 410,000 compounds, 1.2% hits; active = well fitted falling curve with a large enough effect; inconclusive = small, poorly fitted or top-dose-only effect; inactive = no such curve, though single readings can be large or run the other way; tested in HEK293T cells; note: % is set by controls: 0 for no effect and ±100 for the full control effect; nearly all actives have a fitted effect of over 45% in size; luciferase light after 4 h
NS1 function inh: blocks influenza NS1 protein function; AID 2326; S. cerevisiae slowed by influenza A NS1, growth recovery by OD600; 270,000 compounds, 0.4% hits; Potency, µM (doses to about 46.1 µM), for inactives: at the highest dose activity, positive = more growth; active means well fitted rising curve with a large enough effect; inconclusive means small, poorly fitted or top-dose-only effect; inactive means no such curve, though single readings can be large or run the other way; note: nearly all actives have a fitted effect of over 50% in size
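S. cerevisiae expressing influenza A NS1, grown in glucose, washed, then diluted 1:100 into pH 6.0 -URA galactose medium with 23 nl compound. Growth recovery read as OD600; NS1-free strain serves as control.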
RE007 growth inh: less growth of the S. pombe RE007 Vpr strain; S. pombe RE007 Vpr strain, BacTiter-Glo ATP luminescence, 24 h; control for the full effect not named in the record; 360,000 compounds, 0.21% hits; Potency, µM (top dose mostly 92.2 µM), for inactives: at the highest dose activity change, negative = less growth; active = well fitted falling curve with a large enough effect; inconclusive = small, poorly fitted or top-dose-only effect; inactive = no such curve, though single readings can be large or run the other way;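 note: % is set by controls: 0 for no effect and ±100 for the full control effect; nearly all actives have a fitted effect of over 50% in size; the assay follows cell death caused by Vpr and the record does not say whether a fall means rescue or toxicity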
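Fission yeast strain RE007, carrying one chromosomally integrated HIV-1 vpr copy, was seeded at OD 0.01 in PMG+AL medium with 23 nL pinned compound. After 24 h at 30 °C and 99% humidity, viability was read by BacTiter-Glo luminescence.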
Cruzain Triton: cruzain (T. cruzi) inhibition with detergent | P25779 | purified cruzain, Z-FR-AMC fluorescence, 0.01% Triton | Potency, µM, for the others: max response, negative = inhibition, hits mostly inhibitors | 200,000 compounds, 0.43% hits;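 note: plate controls were neutral wells for no effect and buffer without enzyme for full effect; nearly all actives have a fitted effect of over 40% in size; top concentration of the series not given in the record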
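Purified cruzain (1.5 nM final) was preincubated with compounds for 15 min at room temperature in 100 mM sodium acetate pH 5.5, 5 mM DTT, 0.01% Triton X-100. Reaction started with 2 uM Z-FR-AMC; AMC fluorescence change over 60 s gave activity.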
* hit, by the source's call; u = inconclusive; x = no result given; & = joins results of further samples; [ ] = dose if it differs, or a comment. Unless noted, calls come from the whole dose curve; as a rule, active = well fitted curve in the direction sought with a large enough effect; inconclusive = small, poorly fitted or top-dose-only effect, or another doubt; inactive = no such curve, though single readings can be large; an effect the other way counts as inactive or inconclusive. Potency is the fitted concentration of half-maximal effect. Rows are unselected, and some 4.7% of all compounds hit somewhere here.

SMILES	Lassa entry inh	Cruzain noTriton	SARS PLP yeast	MARV entry inh	StopGo reporter	NS1 function inh	RE007 growth inh	Cruzain Triton
Cc1nc(NC(=O)C2CCCCC2)sc1C	10%	-8%	16%	1%	30%	0%	1%	-2.4%
O=c1oc(-c2cccs2)nc2ccc(Cl)cc12	x	x	-3%	x	17%	3%	-13%	x
Cn1cc(/C=N/n2cnc3sc4c(c3c2=O)CCCC4)c2ccccc21	-3%	u	2%	u	10%	-50%	-4%	-4.2%
O=C1OC(c2ccc(Cl)cc2)=N/C1=C\N1CC2CC(C1)c1cccc(=O)n1C2 (stereo unspecified)	x	x	0%	x	-13%	2%	15%	x
Clc1cccc(CN2CCCCCC2)c1	x	x	3%	x	-1%	19%	5%	x
CC(C)c1ccccc1-n1cc[nH]c1=S	10%[46.1 µM]	x	0%	-10%[46.1 µM]	-20%	x	1%	x
COc1ccccc1N1CCN(/N=C/c2cccc(OC)c2O)CC1	x	x	1%	x	59%[activator]	5%	-8%	x
Cc1ccc(NC(c2ccccc2)c2nc3ccccc3[nH]c2=O)cc1 (stereo unspecified)	x	x	-3%	x	4%	-6%	17%	x
COc1cc(/C=N\NC(=O)c2cccnc2)ccc1OC(=O)c1ccccc1Cl	16%	x	-7%	23%	u	7%	-11%	x
COc1ccc(C(=O)N2c3nc(-c4ccco4)nn3C3(CCCCC3)[C@@H]3CCCC[C@@H]32)cc1OC	-4%[46.1 µM]	-6%	x	-27%[46.1 µM]	-12%	x	x	-2.3%
COc1ccc(CCNC(=O)C23CCC(C)(C(=O)C2=O)C3(C)C)cc1OC (stereo unspecified)	0%[46.1 µM]	x	-2%	u	-16%	2%	-2%	x
CCOc1ccc2nc(N3CCN(C(=O)c4ccco4)CC3)sc2c1	0%[46.1 µM]	8%	x	x	5%	x	x	-5.6%
O=C(CCNC(=O)c1ccc([N+](=O)[O-])cc1)Nc1ccccc1N1CCOCC1	x	x	3%	x	3%	2%	0%	x
COc1ccc(C(=O)C[n+]2cc(Br)cc3ccccc32)cc1[N+](=O)[O-]	x	x	4%	x	-21%	9%	-23%	x
COc1ccc(/C(O)=C2/C(=O)C(=O)N(CCCN3CCOCC3)C2c2ccc(N(C)C)cc2)cc1 (stereo unspecified)	x	x	-6%	x	-3%	5%	1%	x
CCCNC(=O)CC(NS(=O)(=O)c1ccc(NC(C)=O)cc1)C(C)C (stereo unspecified)	2%	x	-3%	-10%	1%	x	-7%	x
Cc1ccc(-n2nc(C)c3c2OC(N)=C(C#N)C3c2cccs2)cc1 (stereo unspecified)	-1%	-5%	-2%	-16%&-16%	6%	3%	-24%	-3.3%
Cc1cccc(C)c1NC(=O)CN(C)CC(=O)N1CC(=O)Nc2ccccc21	-8%	x	1%	-26%	-8%	x	-7%	x
COc1ccc(CNC(=O)C2CCN(C(=O)c3cnn(-c4ccccc4)c3-n3cccc3)CC2)cc1	-26%[46.1 µM]	u	x	u	u	x	x	-4.9%
Cc1cccc(-c2nc(Nc3ccc(N4CCOCC4)cc3)c3ccccc3n2)c1	-21%	-24%	-48%	u	u	6%	x	-10%

Single records (already shown). Order of screens: Lassa entry inh	Cruzain noTriton	SARS PLP yeast	MARV entry inh	StopGo reporter	NS1 function inh	RE007 growth inh	Cruzain Triton
`Cc1cccc(C)c1NC(=O)CN(C)CC(=O)N1CC(=O)Nc2ccccc21` as listed: -8%	x	1%	-26%	-8%	x	-7%	x
`COc1ccc(CCNC(=O)C23CCC(C)(C(=O)C2=O)C3(C)C)cc1OC` (stereo unspecified) as listed: 0%[46.1 µM]	x	-2%	u	-16%	2%	-2%	x

Next section:
SMILES	Lassa entry inh	Cruzain noTriton	SARS PLP yeast	MARV entry inh	StopGo reporter	NS1 function inh	RE007 growth inh	Cruzain Triton
Cc1ccc(S(=O)(=O)N(C)C)cc1NC(=O)C(C)OC(=O)/C=C/c1cccs1 (stereo unspecified)	8%	x	1%	3%[46.1 µM]	1%	-3%	-16%	x
Cc1ccsc1C(=O)OCC(=O)N1CCc2ccccc2C1	18%	x	-12%	-23%[46.1 µM]	13%	x	9%	x
CCOc1ccc(Br)cc1S(=O)(=O)Nc1ncn[nH]1	24%[46.1 µM]	x	5%	-6%[46.1 µM]	-7%	u	0%	x
O=C(Nc1cnccn1)c1ccncc1	9%	u	3%	3%	21%	2%	5%	1.7%
COc1ccc(-n2nnnc2SCc2nc(N)nc(N3CCOCC3)n2)cc1	-22%	-5%	5%	3%	-35%	4%	11%	0.3%
CCCCn1cnc2c(sc3nc4c(cc32)CSC(C)(C)C4)c1=O	14%	-10%	5%	18%	27%	4%	0%	-9.7%
O=C1C(=O)N(c2ccccc2)C(c2ccccc2)C1c1ccccc1 (stereo unspecified)	-1%[46.1 µM]	x	x	1%	u	x	-17%	x
CCc1ccc(C(=O)NC(=S)Nc2ccccc2N2CCOCC2)cc1	x	x	-1%	x	-18%	-22%	7%	x
COc1ccc(N(C(=O)c2ccn[nH]2)C(C(=O)NC(C)(C)C)c2ccc(F)cc2)cc1 (stereo unspecified)	1%	u	23%	17%	12%	7%	-6%	3.0%
Cc1ccc(C(=O)CSc2nn3c(=O)c(C(C)(C)C)nnc3s2)cc1	-4%	4%	10%	2%	u	20%	8%	-9.4%
CSc1ccccc1-n1nnnc1SCc1ccccc1	-10%	-8%	-15%	25%	36%[activator]	-35%	-2%	-1.8%
CC(=O)c1cccc(NC(=O)COc2ccc(S(=O)(=O)N3CCCCC3)cc2)c1	-2%	-11%	x	-14%	0%	-9%	-6%	-2.9%
O=[N+]([O-])c1cccc(S(=O)(=O)N/N=C/c2ccc(O)cc2)c1	-14%	x	-2%	u	49%[activator]	x	7%	x
c1ccc(CCn2c3ccccc3c3nnc(SCc4ccc5nonc5c4)nc32)cc1	5.8µM*	u	15%	3.3µM*	u	4%	5%	0.1%
O=C(CCC(=O)Nc1ccccc1Cl)N/N=C1\CCCc2ccccc21	17%	u	0%	u	-23%	6%	-14%	-0.3%
Cc1cccc(N(CC(=O)NC2CCCC2)C(=O)c2c(C)noc2C)c1	0%	9%	-2%	-9%	14%	-8%	1%	9.0%
CCN1CCN(C(c2cccs2)C(C)NC(=O)c2ccccc2F)CC1 (stereo unspecified)	3%	-3%	-1%	-2%	18%	-3%	-2%	-1.7%
Cc1ccc(OCCN2CCN(c3nc(NCc4ccco4)c4ccccc4n3)CC2)cc1	u	10%	1%	u	-10%	-43%	-11%	-2.1%
Clc1cccc(-c2nc3nc4ccccc4nc3n2Cc2ccco2)c1	-12%	-12%	-7%	3%	-1%	-88%	-18%	u
CC(=O)Nc1ccc(SCC(=O)N2CCN(S(=O)(=O)c3ccccc3)CC2)cc1	-22%[46.1 µM]	x	6%	-4%[46.1 µM]	-21%	-4%	3%	x
CN(CCc1ccccn1)C(=O)CCC1CCCN(C(=O)c2n[nH]c3c2CCCC3)C1 (stereo unspecified)	-29%[46.1 µM]	x	0%	1%[46.1 µM]	3%	-1%	2%	x
O=C(NC1C2CC3CC(C2)CC1C3)c1ccc(Br)o1 (stereo unspecified)	u	x	14%	16%&16%[46.1 µM]	-16%	-32%	13%	x
CCOC(=O)C1=NN(C(C)=O)C2(CC(=O)N(c3ccc(C)c(C)c3)C2=O)C1 (stereo unspecified)	11%	19%	-4%	0%	2%	8%	-15%	-1.2%
Cc1ccc(C)c(NC(=O)C(NCC(C)(C)N2CCOCC2)c2ccccc2)c1 (stereo unspecified)	u	x	-4%	u	-2%	x	12%	x
COc1cc(OC)c(OC)cc1CN(C)C(c1ccccc1)c1nnnn1-c1ccccc1C (stereo unspecified)	u	u	2%	u	0%	-32%	10%	-3.6%
Cc1cc(C)nc(NNS(=O)(=O)c2c(C)cc(C(C)(C)C)cc2C)n1	15%	x	1%	1%	4%	x	0%	x
O=C(CCc1nnc(CCCCc2ccccc2)o1)NCCn1cccn1	x	x	0%	x	-12%	1%	14%	x
CCNc1nc(=S)nc(NC(C)C)[nH]1	-2%	1%	-5%	u	-7%	-6%	-1%	2.1%
COc1cc(C(=O)NC2CCN(Cc3nnnn3Cc3cccs3)CC2)cc(OC)c1OC	6%	18%	4µM*	-28%	-3%	-9%	4%	3.3%
N#CC(c1ccccc1O)N1N=C(c2ccccc2)CC1c1ccccc1 (stereo unspecified)	x	x	-1%	x	37%[activator]	0%	u	x
COc1ccc(-c2cc(C(=O)Nc3ccc(C)c(N)c3)c3ccccc3n2)cc1	u	x	-11%	u	17%	-13%	7%	x
Cc1ccc(C)c(Nc2nc3ccccc3[nH]2)c1	-10%[46.1 µM]	x	x	u	0%	x	-27%	x
COc1ccc(CCNC(=O)C2CCN(S(=O)(=O)c3ccc(OC)c(OC)c3)CC2)cc1	3%	25%	15%	4%	-24%	-8%	5%[3.69 µM]	0.4%
O=C(CN1CCN(C(=O)c2cccc(S(=O)(=O)N3CCCC3)c2)CC1)Nc1cccc(F)c1	-9%	x	-3%	-27%	-31%	x	-3%	x
Cc1nn(C)c(C)c1CNC(=O)Nc1ccc(Cl)cc1	-4%	x	-1%	u	58%[activator]	x	4%	x
Cc1cc(C)n(-c2nc(SCC(=O)O)c3c4c(sc3n2)COC(C)(C)C4)n1	5%[46.1 µM]	x	1%	11%[46.1 µM]	-12%	-1%	-9%	x
Cc1onc(-c2c(F)cccc2Cl)c1C(=O)NC1CCSC1=O (stereo unspecified)	-23%	-12%	2%	-6%	-2%	13%	2%	2.2%
Cc1ccccc1CNc1nc(N(C)C)nc2c1cnn2C	u	-12%	x	x	-23%	x	x	-7.3%
N#Cc1sc2nc3c(c(-c4cccnc4)c2c1N)CCC3	-2%	-6%	-8%	0%	x	7%	-6%	-0.8%
Cc1ccc(S(=O)(=O)/N=C(/Nc2ccc([N+](=O)[O-])cc2[N+](=O)[O-])c2ccccc2)cc1	-6%	x	-28%	u	u	x	-12%	x
COc1ccc(C(=O)N/N=C/c2ccc(OC(=O)c3cccc4ccccc34)c([N+](=O)[O-])c2)cc1	-24%	-15%	-11%	-3%	-19%	4%	14%	-3.3%

Bioassay records: PubChem, National Center for Advancing Translational Sciences (NCATS)
